Screening data as filed in PubChem.
Cruzain noTriton: qHTS Assay for Promiscuous and Specific Inhibitors of Cruzain (without detergent). Cruzipain (Trypanosoma cruzi), P25779. AID 1476, 2009. purified cruzain, Z-FR-AMC fluorescence, no detergent. Potency, µM, inactives show max response, negative = inhibition, usual class: inhibitors. actives 2.3% (n = 200,000);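 note: plate controls were enzyme without inhibitor for no effect and buffer without enzyme for full effect; nearly all actives have a fitted effect of over 40% in size; top concentration of the series not given in the record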
Target sequence (P25779 123-467 limits assumed): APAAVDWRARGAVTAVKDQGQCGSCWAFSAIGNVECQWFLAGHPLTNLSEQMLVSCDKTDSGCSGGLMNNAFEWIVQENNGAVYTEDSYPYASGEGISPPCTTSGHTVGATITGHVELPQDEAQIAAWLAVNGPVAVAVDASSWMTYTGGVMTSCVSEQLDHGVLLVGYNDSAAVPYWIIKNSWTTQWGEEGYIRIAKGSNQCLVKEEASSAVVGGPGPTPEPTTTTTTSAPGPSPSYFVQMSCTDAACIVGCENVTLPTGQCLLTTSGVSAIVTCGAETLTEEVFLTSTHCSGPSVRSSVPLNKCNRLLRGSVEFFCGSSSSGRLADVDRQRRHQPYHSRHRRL
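Purified cruzain at 1.5 nM, pre-incubated 15 min with compound at room temperature in 100 mM sodium acetate pH 5.5, 5 mM DTT, 0.00005% Triton X-100. Reaction started with 2 uM Z-FR-AMC; AMC fluorescence increase over 60 s gives rate.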
Cruzain Triton: qHTS Assay for Promiscuous and Specific Inhibitors of Cruzain (with detergent). Cruzipain (Trypanosoma cruzi), P25779. purified cruzain, Z-FR-AMC fluorescence, 0.01% Triton. Potency, µM, inactives show max response, negative = inhibition, most hits filed as inhibitors. actives 0.43% (n = 200,000);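 note: plate controls were neutral wells for no effect and buffer without enzyme for full effect; nearly all actives have a fitted effect of over 40% in size; top concentration of the series not given in the record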
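In this qHTS format, compounds are incubated with 1.5 nM cruzain for 15 min at room temperature before 2 uM Z-FR-AMC is added. Release of AMC is followed at 360/450 nm, and progress is taken as the 60 s fluorescence difference.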
LASV entry inh: qHTS for Inhibitors of binding or entry into cells for Lassa Virus; Lassa virus pseudotype entry inhibition, cell reporter; control for the full effect not named in the record; Potency, µM (top dose mostly 37.9 µM), without a hit: at the top dose activity change, negative = inhibition, usual class: inhibitors; actives 1.2% (n = 300,000); active means well fitted inhibition curve with a large enough effect; inconclusive means small, poorly fitted or top-dose-only effect, or effect the other way; inactive means flat fitted curve, though single readings scatter; tested in HEK293 cells; note: % is set by controls: 0 for no effect and ±100 for the full control effect; nearly all actives have a fitted effect of over 50% in size; luciferase read-out
2A StopGo: High Throughput Screening for Foot and Mouth Disease Virus Antivirals; AID 1159524, 2015; actives 1.2% (n = 410,000); human cells with a luciferase reporter of 2A StopGo recoding; control for the full effect not named in the record; Potency, µM (titrated, usually from 57.9 µM), without a hit: at the highest dose signal change, negative = less light; active = well fitted falling curve with a large enough effect; inconclusive = small, poorly fitted or top-dose-only effect; inactive = no such curve, though single readings can be large or run the other way; tested in HEK293T cells; note: % is set by controls: 0 for no effect and ±100 for the full control effect; nearly all actives have a fitted effect of over 45% in size; luciferase light after 4 h
Marburg entry inh: qHTS for inhibitors of binding or entry into cells for Marburg Virus; Marburg virus pseudotyped entry inhibition, cell reporter; control for the full effect not named in the record; about a third of the inactives were read at about 46 µM; Potency, µM (highest dose often 37.8 µM), for inactives: at the highest dose activity change, negative = inhibition, most hits filed as inhibitors; actives 1.8% (n = 300,000); AID 540276, 2011; active = well fitted inhibition curve with a large enough effect; inconclusive = small, poorly fitted or top-dose-only effect, or effect the other way; inactive = flat fitted curve, though single readings scatter; tested in HEK293 cells; about a fifth of its hits are not listed in these tables; note: % is set by controls: 0 for no effect and ±100 for the full control effect; luciferase read-out
RE007 growth inh: qHTS Assay for Inhibitors of the HIV-1 protein Vpr. S. pombe RE007 Vpr strain, BacTiter-Glo ATP luminescence, 24 h; control for the full effect not named in the record. Potency, µM (series often up to 92.2 µM), for the others: top-dose activity change, negative = less growth. actives 0.21% (n = 360,000); active = well fitted falling curve with a large enough effect; inconclusive = small, poorly fitted or top-dose-only effect; inactive = no such curve, though single readings can be large or run the other way;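 note: % is set by controls: 0 for no effect and ±100 for the full control effect; nearly all actives have a fitted effect of over 50% in size; the assay follows cell death caused by Vpr and the record does not say whether a fall means rescue or toxicity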
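Fission yeast strain RE007, carrying one chromosomally integrated HIV-1 vpr copy, was seeded at OD 0.01 in PMG+AL medium with 23 nL pinned compound. After 24 h at 30 °C and 99% humidity, viability was read by BacTiter-Glo luminescence.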
SARS PLpro yeast: qHTS of Yeast-based Assay for SARS-CoV PLP. actives 0.19% (n = 330,000). AID 485353, 2010. S. cerevisiae expressing SARS-CoV PLpro, growth rescue; control for the full effect not named in the record. Potency, µM (highest dose often 32.9 µM), for the others: at the highest dose activity, positive = growth rescue; active means well fitted rising curve with a large enough effect; inconclusive means small, poorly fitted or top-dose-only effect; inactive means no such curve, though single readings can be large or run the other way; note: 0% is about no effect; nearly all actives have a fitted effect of over 55% in size; growth read by luminescence after 48 h
NS1 inh: qHTS Assay for Inhibitors of Influenza NS1 Protein Function; S. cerevisiae slowed by influenza A NS1, growth recovery by OD600; Potency, µM (series often up to 46.1 µM), inactives show at the highest dose activity, positive = more growth; actives 0.4% (n = 270,000); AID 2326, 2010; active means well fitted rising curve with a large enough effect; inconclusive means small, poorly fitted or top-dose-only effect; inactive means no such curve, though single readings can be large or run the other way; note: nearly all actives have a fitted effect of over 50% in size
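In this qHTS, NS1 from influenza A is expressed in budding yeast, where it slows growth. Cells are switched from glucose to 2% galactose medium (pH 6.0, -URA), treated with compound, and growth recovery is read at OD600.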
The depositor's hits bear a star; [ ] = remark or other dose. Unless noted, calls come from the whole dose curve; as a rule, active = well fitted curve in the direction sought with a large enough effect; inconclusive = small, poorly fitted or top-dose-only effect, or another doubt; inactive = no such curve, though single readings can be large; an effect the other way counts as inactive or inconclusive. Potency is the fitted concentration of half-maximal effect.

`O=C(Nc1ccc(Cl)cn1)Nc1ccccc1F` gave Cruzain noTriton inconclusive, Cruzain Triton 0.6%, LASV entry inh 3%, 2A StopGo 58%[activator], Marburg entry inh inconclusive, RE007 growth inh -6%, SARS PLpro yeast 15% and NS1 inh 1%.
Oc1ccccc1-c1cc(-c2ccc3c(c2)OCCO3)n[nH]1 was read as Cruzain noTriton -13%, Cruzain Triton -11%, LASV entry inh inconclusive, Marburg entry inh inconclusive, RE007 growth inh inconclusive, SARS PLpro yeast -42% and NS1 inh -33%.
`CCOC(=O)N1CCN(S(=O)(=O)c2ccc(C(=O)Nc3sc4c(c3C(N)=O)CC(C)(C)NC4(C)C)cc2)CC1` gave 2A StopGo -6%, RE007 growth inh 11%, SARS PLpro yeast 12% and NS1 inh -4%.
For COc1ccc(C(=O)Nc2ccc(S(=O)(=O)N3CCc4ccccc43)cc2)cc1 the results were LASV entry inh 13µM*, 2A StopGo inconclusive, Marburg entry inh inconclusive and RE007 growth inh 36%.
Screening C/C(=N\NC(=O)C1CCCN(S(=O)(=O)c2ccccc2)C1)c1ccncc1 (centres undefined) returned Cruzain noTriton -6%, Cruzain Triton -3.4%, LASV entry inh 0%, 2A StopGo inconclusive, Marburg entry inh inconclusive, RE007 growth inh 9%, SARS PLpro yeast 3% and NS1 inh 3%.
Screening CC1=CC2=NCC(O)CN2C=C1 (centres undefined) returned Cruzain noTriton -2%, Cruzain Triton 3.2%, LASV entry inh 26%, 2A StopGo -12%, Marburg entry inh 15%, RE007 growth inh -16%, SARS PLpro yeast 12% and NS1 inh 6%.
Screening Cc1cc(Nc2ccccc2C)nc(-n2nc(C)cc2C)n1 returned Cruzain noTriton 11%, Cruzain Triton 3.0%, LASV entry inh inconclusive and 2A StopGo -17%.
`CCOC(=O)c1ccc(P(=O)(c2ccccc2)c2ccccc2)cc1` gave 2A StopGo 8%, RE007 growth inh 8%, SARS PLpro yeast 2% and NS1 inh 3%.
CS(=O)(=O)Nc1ccc(N2CCCCC2)c(Cl)c1 was read as Cruzain noTriton 8%, Cruzain Triton 3.8%, LASV entry inh 3%, 2A StopGo -15%, Marburg entry inh -24%, RE007 growth inh 7%, SARS PLpro yeast 1% and NS1 inh -7%.
For COC(=O)c1ccc(C)c(NC(=O)Cn2cnc3ccccc3c2=O)c1 the results were Cruzain noTriton -9%, Cruzain Triton 2.6%, LASV entry inh -6%, 2A StopGo -11%, Marburg entry inh -16%, RE007 growth inh 2%, SARS PLpro yeast 0% and NS1 inh -1%.
For CCOC(=O)Cn1cc(C(=O)c2ccccc2)c2ccccc21 the results were 2A StopGo -3%, RE007 growth inh -12%, SARS PLpro yeast 6% and NS1 inh -54%.
Screening Cn1c(=O)[nH]c(=O)c2c1nc(NCCCn1ccnc1)n2Cc1ccccc1 returned Cruzain noTriton -11%, Cruzain Triton 7.2%, LASV entry inh -21%, 2A StopGo 0%, Marburg entry inh 20%, RE007 growth inh 1%, SARS PLpro yeast 1% and NS1 inh -1%.
C=CCNC(=O)/C(C#N)=C/c1ccc(C(=O)O)cc1 was read as LASV entry inh 2%[46.1 µM], 2A StopGo -18%, Marburg entry inh 4%[46.1 µM], RE007 growth inh 11%, SARS PLpro yeast 2% and NS1 inh 3%.
For CCCCn1c2ccc(C)cc2c2nnc(SCCN3CCCCC3)nc21 the results were 2A StopGo inconclusive, RE007 growth inh 0%, SARS PLpro yeast 0% and NS1 inh -6%.
For COc1cccc(CN2CCN(CC(=O)Nc3ccccc3Cl)CC2)c1 the results were Cruzain noTriton 0%, Cruzain Triton 2.1%, LASV entry inh -6%, 2A StopGo -15%, Marburg entry inh -16%, RE007 growth inh -14%, SARS PLpro yeast 4% and NS1 inh -17%.
Screening COc1ccc(NC(=O)CSc2ncnc3c2cnn3Cc2ccccc2)cc1 returned Cruzain noTriton -13%, Cruzain Triton 5.0%, LASV entry inh -7%, 2A StopGo -5%, Marburg entry inh 9%, RE007 growth inh -24%, SARS PLpro yeast -11% and NS1 inh -13%.
O=C(COC(=O)c1n[nH]c2ccccc12)NCc1ccccc1 was read as Cruzain noTriton 1%, Cruzain Triton -1.8%, LASV entry inh inconclusive, 2A StopGo -4%, Marburg entry inh -1%, RE007 growth inh 2%, SARS PLpro yeast -1% and NS1 inh 1%.
Screening O=C(Nc1cc(F)ccc1F)C1CCN(S(=O)(=O)c2cccc3nonc23)CC1 returned LASV entry inh -7%, 2A StopGo -14%, Marburg entry inh 10%[46.1 µM], RE007 growth inh 3%, SARS PLpro yeast 1% and NS1 inh -6%.
Cc1nnc(SCc2nc3ccccc3c(=O)n2-c2ccccc2Cl)n1N was read as Cruzain noTriton -16%, Cruzain Triton -5.0%, LASV entry inh -17%, Marburg entry inh 6%, RE007 growth inh -5%, SARS PLpro yeast 4% and NS1 inh 0%.
COc1ccc(CCNC(=O)CNCCc2ccc(F)cc2)cc1 was read as 2A StopGo -23%, RE007 growth inh -19%, SARS PLpro yeast -3% and NS1 inh -3%.
`C#CCNC(=O)C1=C[C@@H](c2csc3ccccc23)C[C@@H](OCc2ccc(CO)cc2)O1` gave 2A StopGo -22%, RE007 growth inh 24%, SARS PLpro yeast -4% and NS1 inh 3%.
For COc1ccccc1C(=O)NC(=O)COC(=O)Cn1cnc2c1c(=O)n(C)c(=O)n2C the results were LASV entry inh 4%, 2A StopGo 1%, Marburg entry inh 0%[46.1 µM], RE007 growth inh -9% and SARS PLpro yeast -4%.
For COCCCNC(=S)N/N=C/c1ccc(O)cc1 the results were 2A StopGo 0%, RE007 growth inh 1%, SARS PLpro yeast 1% and NS1 inh 0%.
`O=C(NCc1ccccc1F)c1ccncc1` gave LASV entry inh 15%, 2A StopGo -15%, Marburg entry inh -6%[46.1 µM], RE007 growth inh 5%, SARS PLpro yeast 1% and NS1 inh 1%.
For CCN(CC)S(=O)(=O)c1cccc2nsnc12 the results were Cruzain noTriton -2%, Cruzain Triton -5.5%, LASV entry inh 8%, 2A StopGo -12%, Marburg entry inh 18%, RE007 growth inh -3%, SARS PLpro yeast -4% and NS1 inh 10%.
For COc1ccc(S(=O)(=O)N2CCCC2CNC(=O)C(=O)NCc2ccco2)cc1 (centres undefined) the results were LASV entry inh 3%, 2A StopGo 8%, Marburg entry inh -5%, RE007 growth inh -4% and SARS PLpro yeast 4%.
Screening CCN(CC)CCNC(=O)CS(=O)Cc1nc(-c2ccccc2Cl)oc1C (centres undefined) returned Cruzain noTriton -3%, Cruzain Triton -0.2%, LASV entry inh -13%, 2A StopGo -19%, Marburg entry inh -3%, RE007 growth inh 0%, SARS PLpro yeast 13% and NS1 inh 0%.
For CCc1ccccc1N1CN(Cc2cccnc2)CNC1=S the results were 2A StopGo -16%, RE007 growth inh -25%, SARS PLpro yeast 0% and NS1 inh 0%.
Screening COCCn1c(=NC(=O)CSCC(=O)N2CCOCC2)sc2cc(C)ccc21 returned LASV entry inh -19%, 2A StopGo -10%, Marburg entry inh 22%, RE007 growth inh 9%, SARS PLpro yeast 17% and NS1 inh 10%.
O=C(Nc1nc(=O)c2ccccc2s1)c1ccc(F)cc1 was read as Cruzain noTriton inconclusive, Cruzain Triton 0.6%, LASV entry inh 9%, Marburg entry inh inconclusive, RE007 growth inh -6%, SARS PLpro yeast -4% and NS1 inh -4%.
For COc1ccc(CNC(=O)C(C)OC(=O)Cn2cnc3c2c(=O)n(C)c(=O)n3C)cc1 (centres undefined) the results were LASV entry inh -3%, 2A StopGo -10%, Marburg entry inh inconclusive, RE007 growth inh -9% and SARS PLpro yeast -5%.
Nc1ccc(-c2nc3c(Cl)cc(N)cc3[nH]2)cc1 was read as Cruzain noTriton inconclusive, Cruzain Triton inconclusive, LASV entry inh 11µM*, 2A StopGo 4µM*, Marburg entry inh inconclusive, RE007 growth inh -15%, SARS PLpro yeast 1% and NS1 inh -1%.
`OC1=C(O)c2nc3cc(F)ccc3nc21` gave 2A StopGo -9%, RE007 growth inh 15%, SARS PLpro yeast 0% and NS1 inh -8%.
Screening O=C(NCCc1c[nH]c2ccccc12)C1CCCN(S(=O)(=O)c2ccccc2)C1 (centres undefined) returned LASV entry inh -8%[46.1 µM], 2A StopGo -14%, Marburg entry inh inconclusive, RE007 growth inh -5%, SARS PLpro yeast 2% and NS1 inh 2%.
O=C(/C=C/c1ccc2c(c1)OCO2)Nc1cc(S(=O)(=O)N2CCOCC2)ccc1N1CCOCC1 was read as Cruzain noTriton inconclusive, Cruzain Triton -7.7%, LASV entry inh inconclusive, 2A StopGo 12%, Marburg entry inh 7%, RE007 growth inh -19%, SARS PLpro yeast 16% and NS1 inh -20%.
Screening Cc1ccccc1Cn1c(=O)n(CCC(=O)NCc2ccco2)c(=O)c2sccc21 returned Cruzain noTriton -12%, Cruzain Triton -1.6%, LASV entry inh -2%[46.1 µM], 2A StopGo 0% and Marburg entry inh 0%[46.1 µM].
For COc1cccc(CNc2nc3ccccc3n2C(C)C)c1O the results were LASV entry inh -12%[46.1 µM], 2A StopGo -4%, Marburg entry inh -6%[46.1 µM], RE007 growth inh -14%, SARS PLpro yeast 0% and NS1 inh -2%.
Screening CCCN(CCC)S(=O)(=O)c1nc2nc(C)cc(C)n2n1 returned LASV entry inh 1%[46.1 µM], 2A StopGo -8%, Marburg entry inh 6%[46.1 µM], RE007 growth inh 1%, SARS PLpro yeast 0% and NS1 inh -1%.
Nc1c(C(=O)NCc2ccco2)c2nc3ccccc3nc2n1CCc1ccccc1F was read as Cruzain noTriton 1%, Cruzain Triton -5.3%, LASV entry inh -10%, 2A StopGo inconclusive, Marburg entry inh inconclusive, RE007 growth inh 0%, SARS PLpro yeast 0% and NS1 inh 15%.
For CN1CCC(OC(=O)C23CCC(C)(C(=O)O2)C3(C)C)CC1 (centres undefined) the results were Cruzain noTriton -6%, Cruzain Triton 1.4%, LASV entry inh -1%, Marburg entry inh -12%, RE007 growth inh 9%, SARS PLpro yeast 1% and NS1 inh -2%.

No enrichment for hits; about 4.5% have a hit in one of these screens.
